TRPML1 ag: agonists of human TRPML1 channel; Q9GZU1; TRPML1-expressing cells, Ca2+ dye fluorescence, FDSS; host cell line not named in the record; reference of the full effect not given here; activation, % (concentration not given with the values); actives 0.12% (n = 410,000); in the data active = activation above about 50%; inconclusive = about 30% to 50%; inactive = below about 30%; also: 0% is about no effect; the text of the record puts the active cut at 80%
Target sequence (Q9GZU1 whole entry, looked up): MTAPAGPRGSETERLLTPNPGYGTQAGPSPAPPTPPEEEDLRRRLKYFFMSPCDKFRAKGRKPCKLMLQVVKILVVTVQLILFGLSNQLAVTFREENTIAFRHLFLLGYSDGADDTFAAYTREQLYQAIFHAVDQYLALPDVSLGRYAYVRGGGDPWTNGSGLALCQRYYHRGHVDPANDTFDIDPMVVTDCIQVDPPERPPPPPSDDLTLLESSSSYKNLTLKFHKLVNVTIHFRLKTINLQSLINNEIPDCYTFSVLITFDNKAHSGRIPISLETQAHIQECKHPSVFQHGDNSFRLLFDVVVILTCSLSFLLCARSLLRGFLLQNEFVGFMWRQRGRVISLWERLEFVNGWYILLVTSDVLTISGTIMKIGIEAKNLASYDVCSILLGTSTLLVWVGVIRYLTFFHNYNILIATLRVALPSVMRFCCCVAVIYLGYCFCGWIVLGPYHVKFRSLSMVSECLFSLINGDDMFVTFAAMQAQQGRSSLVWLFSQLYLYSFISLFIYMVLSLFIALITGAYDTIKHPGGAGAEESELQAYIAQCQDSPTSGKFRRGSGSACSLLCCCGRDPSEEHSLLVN
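In this qHTS format, compounds were pin-transferred onto Ca8-dye-loaded TRPML1-DL cells induced with Tet overnight, and intracellular Ca2+ fluorescence was recorded kinetically for 110 s after a 10 s baseline. A subsequent 4uM final 54-4 (EC80) addition followed by a second 110 s read served as the antagonist phase.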
PINK1 expr mod: modulators of PINK1 expression. PINK1 immunofluorescence, high-content cytometry, 24 h. Potency, µM (titrated, usually from 76.6 µM), for the others: at the top dose activation (PINK1 increase), usual class: activators. actives 0.2% (n = 410,000). AID 624263; active = well fitted activation curve with a large enough effect; inconclusive = small, poorly fitted or top-dose-only effect; inactive = flat fitted curve, though single readings scatter; cell line not stated here;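 also: potency is read from the fitted curve at half-maximal effect; % of control where 0% means no effect; nearly all actives have a fitted effect of over 65% in size; a mitochondrial uncoupler was the plate control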
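Stable cell line, 250 cells/well, 12 h attachment; compounds pinned at 5 concentrations, 24 h; CCCP control. Fixed with nuclear dye, primary antibodies 12 h at 10 degrees C, secondary plus cell stain; laser-scanning cytometer read.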
Numbers without * were called inactive; ? = inconclusive. Only part of the results is shown, so the mix of outcomes need not match the whole.

Start of the data: the first 5 compounds, ahead of the listing:
SMILES	TRPML1 ag	PINK1 expr mod
CCOc1ccc(CCNC(=O)CSc2nc3ccccc3nc2Cc2ccc(C)cc2)cc1OCC	0.8	2.8%
COc1ccc(Nc2c(-c3ccc(C)o3)nc3cc(C)ccn23)cc1	2.5	0.6%
O=C(NCc1ccc(F)cc1)c1ccc2c(Cl)c3c(nc2c1)CCCC3	-0.5	-1.0%
Cc1ccc(C)c(N2CCN(C(=O)c3c(C)oc4nc(C)nc(N5CCOCC5)c34)CC2)c1	1.3	-2.4%
Cc1ccc(-n2nc(C(=O)N3CCN(c4cc(C)ccc4C)CC3)c3c4ccccc4n(C)c3c2=O)cc1	0.6	0.0%

The listing, previewed entries included:
SMILES	TRPML1 ag	PINK1 expr mod
CCOc1ccc(CCNC(=O)CSc2nc3ccccc3nc2Cc2ccc(C)cc2)cc1OCC	0.8	2.8%
COc1ccc(Nc2c(-c3ccc(C)o3)nc3cc(C)ccn23)cc1	2.5	0.6%
O=C(NCc1ccc(F)cc1)c1ccc2c(Cl)c3c(nc2c1)CCCC3	-0.5	-1.0%
Cc1ccc(C)c(N2CCN(C(=O)c3c(C)oc4nc(C)nc(N5CCOCC5)c34)CC2)c1	1.3	-2.4%
Cc1ccc(-n2nc(C(=O)N3CCN(c4cc(C)ccc4C)CC3)c3c4ccccc4n(C)c3c2=O)cc1	0.6	0.0%
CC(C)(CC(=O)OCC(=O)Nc1ccc(F)c(Cl)c1)CC1=NS(=O)(=O)c2ccccc2N1	3.1	23.1%
Cn1c(=O)c2c(SCC(=O)Nc3ccc(F)cc3F)nc(C3CCCC3)nc2n(C)c1=O	1.8	3.0%
Nc1c(N=Nc2ccc([N+](=O)[O-])cc2)c(S(=O)(=O)O)cc2cc(S(=O)(=O)O)c(/C=C/c3ccccc3)c(O)c12	-1.3	-0.4%
COc1ccc(Cl)cc1NC(=O)c1cc(C)nn1-c1ccccc1	1.6	3.0%
COc1cc2c(=O)n(Cc3ccccc3)c(=O)n(CC(=O)Nc3cc(C(F)(F)F)ccc3Cl)c2cc1OC	-0.7	1.3%
CCc1ccc(OCC(=O)Nc2ccc3c(c2)c2ccccc2n3CC)c(Br)c1	-0.8	5.9%
Cc1ccc(OCc2nc(-c3ccc(C(=O)N4CCN(c5cc(Cl)ccc5C)CC4)cc3)oc2C)cc1	-0.1	0.2%
O=C(Nc1ccc(F)c(F)c1)c1cc(S(=O)(=O)NCc2ccc3c(c2)OCO3)ccc1F	3.7	5.1%
CCOc1ccc(CNC(=O)c2cc3c(s2)-c2ccccc2OC3)cc1	3.9	4.9%
Cc1c(C(=O)OCC2CCCCC2)[nH]c2c1C(=O)CC(c1ccc(F)cc1)C2 (stereo not drawn)	0.1	2.2%
Cc1nn(C(=O)c2ccccc2)c(C)c1S(=O)(=O)N1CCOCC1	-0.3	-0.1%
Cc1cc(C)cc(OCCSc2nc3ccc(NC(=O)COc4ccccc4)cc3s2)c1	1.8	-0.3%
CCOc1ccc(OCC)c(Nc2ccc3cc(S(=O)(=O)N4CCCC4)ccc3n2)c1	1.1	-0.8%
CC[C@@H](C)[C@@H](C(=O)Nc1ccc(C)cc1)N1Cc2ccccc2C1=O	-1.0	4.7%
COc1ccc2c(c1)c1c(c(=O)n(-c3ccccc3C)c(=O)n1CC(=O)N1CCCC1)n2C	-0.5	-0.3%
Cc1cccc(Cn2nnc3c(=O)[nH]c(C4CCCN(C(=O)c5ccccc5Cl)C4)nc32)c1 (stereo not drawn)	3.3	0.1%
CCCC1=Nc2cc(C(=O)NCCc3ccc(OC)cc3OC)ccc2Sc2ccccc21	3.4	1.1%
COc1ccc(-c2cc(C)no2)cc1S(=O)(=O)Nc1cccc(C(F)(F)F)c1	0.2	0.5%
CCOc1ccccc1CNCCCSc1nnnn1C	-0.9	-0.7%
O=C(CSc1nc(=O)n(Cc2ccccn2)c2c1CCC2)Nc1ccccc1	0.7	0.6%
CC(C)NC(=O)c1sc2ncccc2c1-n1cccc1	-0.8	0.5%
Cc1cc(Cl)ccc1NC(=O)C(=O)NCc1ccco1	1.5	2.1%
Cc1cccc(NC(=O)c2cn(-c3ccccc3)nc2-c2ccccc2)c1C	0.1	-1.1%
COc1ccc(Cc2nc3ccc(C(=O)NCc4ccccc4Cl)cc3o2)cc1	0.9	2.3%
CCCCC(=O)OC1=C(C(=O)c2ccccc2)N(C)S(=O)(=O)c2ccccc21	2.6	11.8%
COC(=O)Cc1c(C)c2ccc3c(c2oc1=O)CN(Cc1ccccc1Cl)CO3	0.9	0.3%
COC(=O)c1c(NC(=O)c2nc(SCc3ccccc3C)ncc2Cl)sc2c1CCCC2	1.4	1.3%
COC(=O)c1ccc(CSc2nc3c([nH]c4ccccc43)c(=O)n2-c2ccc(Cl)cc2)o1	1.7	-1.7%
COc1ccc(C(=O)c2oc3ccccc3c2NC(=O)c2cc(=O)c3ccc(C)cc3o2)cc1Cl	1.9	12.0%
O=C(COc1ccc(Cl)cc1)Nc1ccc(C(=O)OCc2cc(=O)n3ccsc3n2)cc1	-0.8	3.5%
COc1ccc(-c2nc3c4ccccc4n(CC(=O)Nc4ccc(C(C)=O)cc4)c(=O)n3n2)cc1	0.8	3.5%
O=S(=O)(c1ccc2c(c1)CCCC2)N1CCN(c2nc(-c3ccccc3)nc3ccccc23)CC1	-0.2	0.1%
CCc1ccc(C2=C(C)C(N3CCC(C(=O)NCc4ccc(C)o4)CC3)=NS2(=O)=O)cc1	3.3	4.0%
CCCN(CCC)CCNC(=O)c1nn(C)c2c1CS(=O)(=O)c1ccccc1-2	-0.4	-0.6%
CCOc1ccc2c(c1)c(=O)c(C(=O)c1ccc(C)cc1)cn2Cc1ccccc1OC	4.1	0.3%
CCOc1ccc(CCNC(=O)CCCc2nnc3n(C)c(=O)c4sccc4n23)cc1OCC	3.1	1.9%
CCOC(=O)c1c(C)[nH]c(C)c1S(=O)(=O)N1CCC(C(=O)Nc2ccc(OCC)cc2)CC1	-0.9	-0.5%
COc1cccc(CNC(=O)c2ccc(NC(=O)N3CCCCc4ccccc43)cc2)c1	2.2	-1.6%
O=C(Nc1noc2ccccc12)c1cccc(Cl)c1Cl	-0.2	0.8%
CCc1nn(CC(=O)N(CC)Cc2ccccc2)c(=O)c2cc3occc3n12	-0.7	2.6%
CCOc1ccc(-c2cn3c(n2)sc2cc(C(=O)NCCc4ccc(OC)cc4OC)ccc23)cc1	0.8	0.4%
CCOC(=O)c1c(C)[nH]c(C)c1S(=O)(=O)N1CCN(c2cc(Cl)ccc2C)CC1	1.2	?
COc1ccccc1NC(=O)CSC1=Nc2ccccc2C2=NC(CC(=O)NCCc3ccccc3)C(=O)N12 (stereo not drawn)	1.3	1.5%
CCOC(=O)c1cccc(NC(=O)c2cc(CN3CCCC3)on2)c1	0.7	1.8%
CCOC(=O)C1CCN(C(=O)Cn2ncc3c4ccccc4n(Cc4ccc(F)cc4)c3c2=O)CC1	1.9	4.8%
CCOC(=O)c1ccccc1NC(=O)c1c(-c2ccccc2)noc1C	3.4	6.5%
Cc1ccc(NC(=O)Cn2nnc(C(=O)NCCc3ccccc3)c2N)cc1C	0.2	?
Cc1cccc(-c2nc(CCNC(=O)Cc3ccc(F)cc3)cs2)c1	2.1	-0.2%
O=C(Nc1ccc2nc3n(c(=O)c2c1)CCCCC3)c1cccc(C(F)(F)F)c1	3.5	0.6%
CCOc1ccc(NS(=O)(=O)c2ccc3[nH]c4c(c3c2)CCCC4)cc1	3.9	?
CSc1cccc(NC(=O)C2CCCN(S(=O)(=O)c3ccc4c(c3)CCCN4C(C)=O)C2)c1 (stereo not drawn)	0.1	-1.2%
COc1ccc(OC)c(-n2nnc3c(sc4nc(C)c(Br)c(C)c43)c2=O)c1	1.7	0.4%
CCN(CC)C(=O)c1sc2c(c1C)c(=O)n(-c1ccc(C)c(C)c1)c(=O)n2CC(=O)Nc1ccc(OC)cc1OC	0.6	1.7%
CCc1ccc(C(=O)NC2=NC(c3ccccc3F)CC(=O)N2)cc1 (stereo not drawn)	2.3	3.0%
C(=Nc1cccnc1)c1ccc2ccccc2n1	0.2	1.4%
Additional entries.
SMILES	TRPML1 ag	PINK1 expr mod
CC(=O)c1cc(-c2ccc(F)cc2)n(CC(=O)Nc2cc(C)cc(C)c2)c1C	1.7	-1.0%
COc1ccc(SCc2cc(=O)c3ccc(C)c(C)c3[nH]2)cc1	1.7	12.5%
COc1ccc(C(=O)N2CCC(c3nc(-c4ccc(S(=O)(=O)N5CCCC5)cc4)no3)CC2)cc1	0.3	0.4%
CC(=O)Nc1cc(C(=O)NCc2ccc(F)cc2Cl)ccc1Sc1ccc(Cl)cc1	4.5	-0.8%
CC(=O)N1c2c(cc(Br)cc2S(=O)(=O)N2CCN(c3cc(C)ccc3C)CC2)CC1C (stereo not drawn)	-0.6	3.4%
CC(C)c1ccc(NC(=O)c2ccc(=O)n(Cc3ccccc3)c2)cc1	1.2	2.3%
CCOC(=O)c1c(NC(C)=O)c2c3c(sc2n1Cc1cccc(Cl)c1)CCCC3	0.9	-0.6%
Cc1cc(C)cc(NS(=O)(=O)c2cc3c(cc2C)NC(=O)CO3)c1	-0.9	0.5%
COc1cc(CN(C(=O)COc2ccc(C)cc2)c2ccccn2)cc(OC)c1OC	-0.9	0.1%
CN(C)CCCn1c(-c2ccc(Cl)cc2)csc1=Nc1ccccc1	0.7	7.5%
Cc1ccc(C)c(NC(=O)Cn2c(=O)n(CCCS(=O)(=O)C3CCCCC3)c(=O)c3ccccc32)c1	2.8	1.3%
CC(C)NC(=O)C1=CC(c2ccc3c(c2)OCO3)=NS(=O)(=O)N1C	1.0	-0.5%
Cc1noc(C)c1S(=O)(=O)N1CCCC(C(=O)Nc2ccc(C(C)C)cc2)C1 (stereo not drawn)	-0.2	-0.4%
COc1ccc2nc(N(Cc3cccnc3)C(=O)C3COc4ccccc4O3)sc2c1 (stereo not drawn)	2.2	27.2%
Cc1ccc(-n2ncc(C(=O)NCCc3ccccc3)c2C2CCN(C(=O)OC(C)(C)C)CC2)c(C)c1	-0.1	-0.6%
CC(NC(=O)c1c2c(nc3ccccc13)C(=O)N(C1CCCCC1)C2)c1ccccc1 (stereo not drawn)	0.0	1.0%
Cc1ccc(NC(=O)CSc2ncn[nH]2)cc1C	1.5	-0.6%
COc1ccc(NC(=O)c2ccc3c(SCC(=O)O)c4c(nc3c2)CCCC4)cc1OC	-0.9	1.2%
O=C(CSc1nc2c(c(=O)[nH]1)CCCC2)Nc1ccc(Br)cc1	2.1	4.1%
COc1ccc(-c2nn(C)c3sc(C(=O)Nc4cc(OC)c(OC)c(OC)c4)cc23)cc1OC	0.7	6.4%
CCOc1ccc(CNC(=O)c2cnc3sc(N4CCCCCC4)nn3c2=O)cc1OC	0.1	4.8%
CCC(Oc1ccc(F)cc1)C(=O)Nc1cc(-c2ccc(C)cc2)no1 (stereo not drawn)	0.4	-0.9%
CCOC(=O)c1ccc2c(c1)N(CC(=O)Nc1cc(F)ccc1F)C(=O)c1ccccc1S2	4.3	23.1%
CC(=O)c1cc(-c2ccccc2)n(CCC(=O)NCCc2ccccc2)c1C	1.0	-2.1%
COc1ccc(OC)c(NC(=O)Cn2cnc3c(oc4ccccc43)c2=O)c1	-0.8	-1.2%
CCc1ccccc1NC(=O)c1cnc(N2CCCCC2)c2ccccc12	0.0	1.0%
CC1CCCN(C(=O)c2ccc(CSc3nc4ccncc4n3Cc3ccccc3)cc2)C1 (stereo not drawn)	0.3	0.3%
Cc1noc(Cn2c(=O)c3ccccc3n(CC(=O)Nc3ccccc3C(F)(F)F)c2=O)n1	-1.1	2.5%
Cc1ccccc1Nc1c(-c2ccsc2)nc2c(C)cccn12	-0.2	1.2%
CC(=O)c1cc(-c2ccccc2)n(CCC(=O)NC(C)c2ccccc2)c1C (stereo not drawn)	2.2	1.0%
O=C(Nc1cccc(F)c1)C1CCN(S(=O)(=O)c2cccc3nsnc23)CC1	-0.7	1.2%
Cn1nc(C(=O)NCCc2ccc(Cl)cc2)c2c1-c1ccccc1SC2	1.6	4.5%
Cc1ccc(NC(=O)Cn2nc(Cc3ccncc3)c3ccccc3c2=O)c(Cl)c1	0.8	0.7%
CSc1ccc(CNC(=O)CCn2c(=O)c3cccn3c3ccc(F)cc32)cc1	4.6	1.8%
CCOC(=O)C1CCCN(S(=O)(=O)c2cc(-c3cc(C)no3)ccc2C)C1 (stereo not drawn)	1.2	0.9%
COc1ccc(CCNC(=O)c2c(C)nn(-c3ccc(F)cc3)c2-n2cccc2)c(OC)c1OC	6.1	0.7%
COc1ccc(CCNC(=O)c2cnc3sc(N4CCC(C)CC4)nn3c2=O)cc1OC	-0.8	1.7%
CC(=O)c1nnn(-c2ccc(C)cc2Cl)c1C	-0.2	2.7%

Another view of five compounds above.
Structure,TRPML1 ag,PINK1 expr mod
CCC(Oc1ccc(F)cc1)C(=O)Nc1cc(-c2ccc(C)cc2)no1 (stereo not drawn),0.4,-0.9%
CCOC(=O)c1ccc2c(c1)N(CC(=O)Nc1cc(F)ccc1F)C(=O)c1ccccc1S2,4.3,23.1%
CC(=O)c1cc(-c2ccccc2)n(CCC(=O)NCCc2ccccc2)c1C,1.0,-2.1%
COc1ccc(OC)c(NC(=O)Cn2cnc3c(oc4ccccc43)c2=O)c1,-0.8,-1.2%
CCc1ccccc1NC(=O)c1cnc(N2CCCCC2)c2ccccc12,0.0,1.0%

Screens (PubChem)
